BJeLR viability: MLPCN primary cell-based screen for lethality selective to Ras in HRASV12 cells. BJeLR (HRASV12) viability, CellTiter-Glo ATP luminescence, 48 h; reference of the scale not given here. inhibition, % (concentration not given with the values). 300,000 compounds, 0.17% hits. AID 1554, 2009;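 active = replicate mean above 50%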;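 also: 50 nL library stock added to about 25 µL; numbers are from one replicate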
Sa RN4220 lethal: growth inhibition of S. aureus RN4220, primary screen, OD600; 330,000 compounds, 0.33% hits; 16 h; inhibition, % (no concentration beside the values); AID 1259311, 2017;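 active = z-score of -3 or lower and OD600 up to 0.18 on both plates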;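 also: plate controls were untreated cells for no effect and reference antibiotic for full effect; stock transfer was 100 nL into about 80 µL; one replicate is shown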
Mtb hypoxia inh: PubChem AID 1159583; M. tuberculosis hypoxia-regulated fluorescent reporter, fluorescence; fluorescence inhibition, % (no concentration beside the values); 300,000 compounds, 0.1% hits;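 active = 35 to 45% if threefold the growth effect, above 45% if 1.5-fold the growth effect; inactive = the rest, general growth blockers included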;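 also: wells of about 50 µL received 100 nL stock; 0% = vehicle wells and 100% = reference inhibitor wells; whole bacteria with a GFP reporter of the hypoxia response; strong numbers were not always called active; many hits fall short of the cut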
Bead autofluor: counter-screen for toxin protease inhibitors: compound fluorescence | compound autofluorescence counterscreen, microsphere flow cytometry; stronger effect = higher value | AID 624483 | 360,000 compounds, 3.1% hits | fluorescence intensity (no concentration beside the values);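 active = at least 3 SD above the mean of all compounds, about 16000 in these data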;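 also: 100 nL of 1 mM stock went into each well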
ugtP null kill: growth inhibition of ugtP-null S. aureus, primary screen, RN4220 ugtP deletion, OD600; 16 h; some inactives read as strong as hits; growth inhibition, % (test concentration not listed); 330,000 compounds, 0.54% hits; AID 1259309, 2017;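 active = z-score under -3 and OD600 up to 0.15 on both plates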;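 also: plate controls were untreated wells for no effect and antibiotic for full effect; wells of about 80 µL received 100 nL stock; the first replicate is given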
PrP UTR inh: inhibition of PrP 5' UTR reporter expression | cell-based PrP 5' UTR mRNA reporter, plate reader | inhibition, % (test concentration not listed) | 340,000 compounds, 0.35% hits;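 active = every replicate at 50% or more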;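 also: 0 = median of the neutral control wells; tested in H4 reporter cells; numbers are from one replicate; inactives centre near -14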
Mtb hypoxia inh growth: also measured in Mtb hypoxia inh; calls as there; growth inhibition, %; measured here: M. tuberculosis growth (absorbance);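 0% = vehicle and 100% = reference antibiotic; read after six days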
Numbers without * were called inactive; nt = not tested or not shown; & = joins results of further samples.

nr	structure	BJeLR viability	Sa RN4220 lethal	Mtb hypoxia inh	Mtb hypoxia inh growth
1	COc1ccc(N2CC(C(=O)OCC(=O)c3ccc(C)cc3)CC2=O)cc1 (stereo not drawn)	-24	0.0	9	6
2	COc1cc(OC)cc(C(=O)N2CCCC(c3nc(-c4ccc(C)o4)no3)C2)c1 (stereo not drawn)	-19	3.7	-17	5
3	COc1ccc(CN=C2NC(=O)CC(C(=O)Nc3ccccc3C)S2)cc1 (stereo not drawn)	14	8.2	10	7
4	CC(C)(C)OC(=O)N1CCC[C@H]1C(=O)NCc1ccc(Cl)cc1Cl	-2	5.2	3	8
5	COc1cccc(O[C@@H]2O[C@@H]3COC(C)(C)O[C@H]3[C@H](O)[C@H]2NC(C)=O)c1	-10	1.5	1	-1
6	COc1ccc(C(=O)C[n+]2cccc3cc(C)ccc32)cc1	7	3.4	12	5
7	CCc1ccc(C(C)NC(=O)c2cccs2)cc1 (stereo not drawn)	-11	1.4	nt	nt
8	CC(C)Cn1c(-c2ccco2)nc2c(c(=O)c3ccccc3n2C)c1=O	-8	5.5	13	20
9	Cn1c(=NC(=O)COc2ccccc2)sc2ccccc21	-7	9.6	4	-2
10	COC(=O)c1ccc(OC(=O)CN2C(=O)c3ccccc3C2=O)cc1	-2	5.5	12	8
11	C/C=C/c1ccc(OCCCn2cncn2)c(OC)c1	-1	1.4	nt	nt
12	COC(=O)c1ccc(NC(=S)NC(=O)C2CCC2)cc1	9	4.1	nt	nt
13	Cn1c(CS(=O)Cc2c(Cl)cccc2Cl)nnc1SCc1c(Cl)cccc1Cl (stereo not drawn)	-3	3.4	5	0
14	COc1ccccc1CNC(=O)CN1C(=O)NC2(CCCC2)C1=O	nt	-2.2	-7	9
15	COc1ccc(C=NNC(=O)c2cccc(NC(=O)c3ccccc3Cl)c2)c(OC)c1	nt	1.7	1	-5

nr	Bead autofluor	ugtP null kill	PrP UTR inh
1	2033	8	-3
2	4465	10	-17
3	2089	-2	-14
4	4525	9	-24
5	4012	-3	-22
6	9926	5	-22
7	4119	4	-9
8	nt	-3	nt
9	4592	3	-108
10	3709	1	-10
11	4563	-1	-13
12	4652	33	-2
13	16613*	30	-2
14	3840	-2	-5
15	nt	5	nt

Entries by screen from the list:
PrP UTR inh, entries 3 to 9: -14, -24, -22, -22, -9, nt, -108

A different layout for part of the listing above.
| cpd | SMILES | BJeLR viability | Sa RN4220 lethal | Mtb hypoxia inh | Mtb hypoxia inh growth | Bead autofluor | ugtP null kill | PrP UTR inh |
| --- | --- | --- | --- | --- | --- | --- | --- | --- |
| 1 | COc1ccc(N2CC(C(=O)OCC(=O)c3ccc(C)cc3)CC2=O)cc1 (stereo not drawn) | -24 | 0.0 | 9 | 6 | 2033 | 8 | -3 |
| 2 | COc1cc(OC)cc(C(=O)N2CCCC(c3nc(-c4ccc(C)o4)no3)C2)c1 (stereo not drawn) | -19 | 3.7 | -17 | 5 | 4465 | 10 | -17 |

Entries above containing a Cl atom, in the order listed:
nr	structure	BJeLR viability	Sa RN4220 lethal	Mtb hypoxia inh	Mtb hypoxia inh growth
4	CC(C)(C)OC(=O)N1CCC[C@H]1C(=O)NCc1ccc(Cl)cc1Cl	-2	5.2	3	8
13	Cn1c(CS(=O)Cc2c(Cl)cccc2Cl)nnc1SCc1c(Cl)cccc1Cl (stereo not drawn)	-3	3.4	5	0
15	COc1ccc(C=NNC(=O)c2cccc(NC(=O)c3ccccc3Cl)c2)c(OC)c1	nt	1.7	1	-5

nr	Bead autofluor	ugtP null kill	PrP UTR inh
4	4525	9	-24
13	16613*	30	-2
15	nt	5	nt

Next part.
nr	structure	BJeLR viability	Sa RN4220 lethal	Mtb hypoxia inh	Mtb hypoxia inh growth
16	O=C(C=C1SCCS1)/C=C/c1ccco1	-2	-0.6	nt	nt
17	CS(=O)(=O)NN1C(=O)c2ccccc2NC1c1cccc2cccnc12 (stereo not drawn)	3	1.5	2	4
18	O=C(OCc1cccc([N+](=O)[O-])c1)c1cccnc1Cl	-2	4.1	2	-1
19	COc1cccc(CNC(=O)CCNS(=O)(=O)c2cccc3nsnc23)c1	6	7.5	12	14
20	CCOC(=O)C1(CCc2ccccc2)CCN(C(=O)C(C)n2cncn2)CC1 (stereo not drawn)	-1	3.5	4	2
21	O=C(Cc1ccc([N+](=O)[O-])cc1)N/N=C/c1ccccc1F	-4	nt	nt	nt
22	COc1ccc(Cn2ccnc2SCC(=O)NC2CCCCC2)cc1	-5	4.8	11	9
23	O=S(=O)(Nc1ccccc1N1CCCCC1)c1ccc(F)cc1F	2	4.4	5	0
24	COc1ccc(C)cc1NC(=O)C(Sc1nnnn1C)c1ccccc1 (stereo not drawn)	-1	0.5	4	8
25	CCNC(=O)NC(=O)C(C)Oc1ccc(C(=O)OC)cc1 (stereo not drawn)	11	-18	23	-13
26	Cc1noc(C(C)C)c1C(=O)Nc1ccc(-c2nnc3n2CCCCC3)cc1	nt	3.6	23	10
27	COc1ccc(NS(=O)(=O)c2cccc(C(=O)NNC(=O)CNC(=O)c3cccc(C)c3)c2)cc1	-11	2.4	14	3
28	CCCN1CCN(S(=O)(=O)c2cc3c(cc2C)NC(=O)CO3)CC1	10	-5.4	8	7
29	OCCN1CCN(c2ncnc3sc4c(c23)CCCC4)CC1	-14	0.5	4	1
30	O=C(Nc1cccc(C(F)(F)F)c1)C1CCCCC1	-3	-2.6	nt	nt

nr	Bead autofluor	ugtP null kill	PrP UTR inh
16	2431	10	8
17	2211	-12	-17
18	4658	-4	-1
19	3288	-2	-12
20	4164	9	-8
21	3854	nt	-18
22	4161	12	-15
23	3559	7	-17
24	4496	6	-28
25	2866	-5	-9
26	3781	-2	-9
27	6986	3	-32
28	5911	-8	-22
29	3099	2	-16
30	3109	-7	-13

Other records follow.
nr	structure	BJeLR viability	Sa RN4220 lethal	Mtb hypoxia inh	Mtb hypoxia inh growth
31	Cc1cc(NC(=O)Nc2cccc(C(F)(F)F)c2)no1	3	3.6	3	9
32	O=c1[nH]c(CO)nc2c1oc1ccccc12	-2	-7.1	14	4
33	CC1=C(C(=O)OC2CCCC2)C(c2ccc(C)o2)C2=C(CC(c3cccs3)CC2=O)N1 (stereo not drawn)	6	-1.5	-6	10
34	O=[N+]([O-])c1cccc(S(=O)(=O)Nc2cccc(-c3ccc(N4CCCC4)nn3)c2)c1	-6	10	5	-2
35	COC(=O)C1=C(C)NC(C)=C(C(=O)OC)C1C(=O)OCCN1C(=O)c2ccccc2C1=O	0	1.4&4.9	8	4
36	Cn1nnnc1SCC(=O)Nc1ccccc1[N+](=O)[O-]	-8	1.9	nt	nt
37	CC(C)(C)NC(=O)CSc1nnc(Cc2ccc3c(c2)OCO3)n1C1CCCCC1	-11	0.4	2	2
38	CCn1c(=O)c2cc(C(=O)NCCC(C)C)sc2c2ccccc21	-6	-0.5	-1	14
39	CCC(=O)Nc1cc(-c2nnc(OC)c3ccccc23)ccc1N1CCOCC1	9	3.4	nt	nt
40	COCCn1c(=S)[nH]c2cc(C(=O)NCCc3ccccc3)ccc2c1=O	4	1.8	8	2
41	CC(=NNC(=O)c1cccc(NN=C(C)c2ccc([N+](=O)[O-])cc2)c1)c1ccc([N+](=O)[O-])cc1	nt	-9.3	12	1
42	O=C(COC(=O)CNC(=O)C1CCCCC1)Nc1ccc(Cl)cc1F	-13	6.6	8	10
43	CC(=O)C1C(CCc2ccccc2)NC(=O)N(Cc2ccccc2)C1C (stereo not drawn)	nt	5.7	-4	-7
44	Cn1c2ccccc2c2nnc(NN)nc21	4	0.4	-9	-7
45	O=C(CCNC(=O)C1CCN(S(=O)(=O)c2ccccc2)CC1)NCc1cccc(Cl)c1	-1	-0.1	-2	5

nr	Bead autofluor	ugtP null kill	PrP UTR inh
31	3046	-13	-17
32	2898	-3	-13
33	22029*	-1	2
34	4928	3	-19
35	4284&3524	-2&7	-14&3
36	3813	-3	-5
37	20511*	-5	-24
38	3865	-17	-15
39	4503	5	-25
40	5412	1	-1
41	nt	0	nt
42	4172	2	8
43	nt	2	nt
44	3934	-6	-11
45	5663	-4	3

(listing goes on)
nr	structure	BJeLR viability	Sa RN4220 lethal	Mtb hypoxia inh	Mtb hypoxia inh growth
46	CCOc1ccccc1OCC(=O)Nc1nc2ccccc2[nH]1	-7	4.2	2	9
47	Cc1ccc(S(=O)(=O)N2CCN(C(=O)CSc3nc4ccccc4c(=O)[nH]3)CC2)c(C)c1	-18	4.1	-1	2
48	CCCc1nnc(SCC(=O)Nc2ccccc2F)o1	-9	1.6	10	6
49	CCN1CCN(c2nc3ccccc3nc2NS(=O)(=O)c2ccc(NC(C)=O)cc2)CC1	5	3.9	0	-6
50	Cc1onc(NC(=O)CSCC(=O)O)c1Br	3	0.2	14	-3
51	CNC(=S)Nc1cc(OC)c(NC(=O)c2ccco2)cc1OC	2	8.2	9	2
52	Cc1ccc(CNC(=O)C2CCC(CNS(=O)(=O)c3cccc4cccnc34)CC2)cc1 (stereo not drawn)	0	2.1	-2	4
53	Cc1ccc(N(C)S(=O)(=O)c2ccc3c(c2)NC(=O)C(C)S3)cc1 (stereo not drawn)	0	15	0	-20
54	C=CCN1CCN(Cc2cnc(Cl)s2)CC1	0	5.8	12	9
55	CCOc1ccc(C2C(C#N)=C(N)SC(N)=C2C#N)c(OCC)c1	-7	1.0	nt	nt
56	COc1ccccc1CNC(=O)CNC(=O)c1ccc(Br)o1	11	2.5	6	13
57	COCCNC(=O)C(c1ccco1)N(C(=O)Cn1nnc2ccccc21)c1cc(C)ccc1C (stereo not drawn)	3	2.6	14	12
58	CC(Sc1nc(-c2ccccc2)cc(C(F)(F)F)n1)C(=O)N1CCOCC1 (stereo not drawn)	-2	-1.4	nt	nt
59	CCOC(=O)C(=NNc1ccc(Cl)cc1)S(=O)(=O)c1ccccc1	nt	1.1	0	2
60	CCC(C)(C)NC(=O)C(c1ccc(O)cc1)N(CCOC)C(=O)CCC(=O)Nc1nccs1 (stereo not drawn)	-1	1.3	8	9

nr	Bead autofluor	ugtP null kill	PrP UTR inh
46	3520	3	-17
47	3790	-7	-27
48	3551	10	-27
49	4336	9	-11
50	nt	7	nt
51	2618	12	-13
52	6062	7	-6
53	4550	-3	-6
54	4286	12	-8
55	22485*	-2	-12
56	5952	3	-10
57	4188	1	-3
58	4659	5	-1
59	nt	-10	nt
60	4168	6	nt

The list goes on.
nr	structure	BJeLR viability	Sa RN4220 lethal	Mtb hypoxia inh	Mtb hypoxia inh growth
61	Cc1c(C(=O)OCc2nc3ccsc3c(=O)[nH]2)oc2ccccc12	nt	-0.8	7	8
62	Cc1ccc(Cn2nc(C)c(NC(=O)CCCn3nc(C)c([N+](=O)[O-])c3C)c2C)cc1	-2	-10	-6	-2
63	Cc1nc(NC(=O)COC(=O)C2=NNC(=O)CC2)c(Cl)cc1Cl	2	1.8	-4	-6
64	CCOc1ccc(NS(=O)(=O)c2c(C(=O)N3CCCCCC3)c(C)n(C)c2C)cc1	-2	0.5	10	6
65	CC(C)(C)NC(=O)C(=O)N/N=C/c1ccc(Br)cc1	-1	nt	nt	nt
66	CC(C)(C)OC(=O)N1CC=C2C(C#N)=C(N)C(C#N)(C#N)[C@H](c3cccnc3)[C@H]2C1	-2	7.4	2	2
67	CCCCSc1nc(SCC(=O)NCc2ccco2)c2c3c(sc2n1)COC(C)(CC)C3 (stereo not drawn)	-5	0.6	-5	-6
68	CN(C)C(=O)C1CC(=O)OC12CCCCC2 (stereo not drawn)	-10	4.4	12	4
69	COc1ccccc1C(=O)NC1CCCCCCC1	6	3.6	9	7
70	CCN(CC)S(=O)(=O)c1ccc(N2CCCC2)c(NC(=O)c2c(-c3ccccc3)noc2C)c1	-19	nt	nt	nt
71	CC1=CC(C)(C)NC(=S)N1c1ccc([N+](=O)[O-])cc1	nt	-0.1	3	16
72	COc1ccc(CC(=O)OC(C)C(=O)Nc2ccc(Cl)cn2)cc1 (stereo not drawn)	nt	-1.7	10	-3
73	CN1C(=O)C(=Cc2ccccc2Oc2ccc(Cl)cc2)C(=O)N(C)C1=O	-2	-9.0	nt	nt
74	COC(=O)c1cc(OC)c(OC)cc1NC(=O)c1c(-c2ccccc2)noc1C	nt	-0.3	4	12

nr	Bead autofluor	ugtP null kill	PrP UTR inh
61	7912	6	-19
62	6733	0	-4
63	2088	-2	-17
64	5022	5	-9
65	3307	nt	-24
66	10291	-4	-30
67	9428	33	-16
68	3803	-1	-13
69	3693	-14	-39
70	3295	nt	6
71	3717	2	-12
72	8010	3	-20
73	2747	8	-2
74	10768	-8	8

Bioassay records deposited in PubChem by several laboratories.
